H5N1 CPE: antiviral screen in MDCK cells, H5N1 avian flu; cytopathic effect, luminescence, 72 h; stronger effect = higher value; no value below 0 was filed and about half of the inactive calls have no number; reference of the scale not given here; inhibition, % at 50 µM; 96,000 tested, 0.07% active; in the data active = inhibition above about 25%
* = called active by the depositor; i = inactive. This is a subset; count on the stated rates, not on these rows.

SMILES | H5N1 CPE
CCOC(=O)CSCC(NC(=O)OC(C)(C)C)C(=O)OCC (configuration not stated) | i
CCN(C(=O)Cc1c(C(=O)O)[nH]c2ccccc12)c1cc(OC)ccc1OC | 0.2
O=C(Nc1cccc(O)c1)c1cnn2cccnc12 | i
c1nc(N2CCOCC2)c2c3c(sc2n1)CCCC3 | i
COc1cccc(C2/C(=C(/O)c3ccc(F)cc3)C(=O)C(=O)N2CCN(C)C)c1 (configuration not stated) | i
COc1cccc(-c2nn3c(-c4cc(C)[nH]n4)nnc3s2)c1 | 0.6
O=C(NCc1ccc(Cl)cc1)c1ccc(COCC(F)(F)F)o1 | i
CCOc1cc(/C=C(/C#N)c2nc3ccccc3[nH]2)ccc1Oc1ccc([N+](=O)[O-])cn1 | 0.7
COc1cc(CNC(C)(C)CO)ccc1OCC(=O)Nc1ccc(Br)cc1 | i
Cc1ccc(-c2noc(C3CCCN(C(=O)C4CCCCC4)C3)n2)o1 (configuration not stated) | 0.2
N#CCCn1nc(-c2ccccc2)cc1Nc1ccccc1NC(=O)c1cccs1 | i
COC(=O)CN(c1ccc(F)cc1)S(=O)(=O)c1ccccc1 | 0.8
CCN(CC)CCN=CC1=C(O)CNC1=O | 0.7
CC1=Nc2ccc(C)cc2N(Cc2ccccc2)C(=O)C1 | 0.1
CCOC(=O)C1Cc2ccccc2C(=O)O1 (configuration not stated) | 0.4
COc1ccc(NC(=O)C2CCCN2S(=O)(=O)c2cccc3cccnc23)c(OC)c1 (configuration not stated) | 1.0
COc1ccc(OC)c(C(c2nnnn2C2CCCC2)N2CCc3ccccc3C2)c1 (configuration not stated) | i
COC(=O)c1ccc(CSc2nnnn2-c2ccc(C)cc2C)o1 | i
CCn1cc(C2=NOC(C(=O)Nc3cc(OC)c(Cl)cc3OC)C2)c(C)n1 (configuration not stated) | 1.8
Cc1oncc1C(=S)Nc1ccccc1 | i
Cc1nc(NC(=O)C2CC2)sc1C(=O)N1CCCCC1 | i
CCCn1c(SCC(=O)N2c3ccccc3Sc3ccccc32)nc2c1c(=O)n(C)c(=O)n2C | i
CCN(CC)C(=O)c1scc2c1OCCO2 | i
COC(=O)C1=C(C)N(c2ccc(F)c(Cl)c2)C(=O)C1 | i
CN1C(=O)NC2C1N(S(C)(=O)=O)CCN2S(C)(=O)=O (configuration not stated) | 0.1
CCOc1cc(C2C(C(=O)c3ccc(C)cc3)=C(C(=O)OC)Nc3nnnn32)ccc1O (configuration not stated) | 0.5
Cc1cc2nnc(SCC(=O)N3CCN(c4ccccc4)CC3)n2c(N)n1 | i
CCC(C)[C@H](NC(=O)NCCCc1ccccc1)C(=O)OC (some centres not stated) | i
Nc1cc(N)nc(SCc2cc(=O)oc3cc4c(cc23)CCC4)n1 | 1.9
O=C(Nc1ccccc1Cl)c1cccc(NC(=O)C2C3CC4OC(=O)C2C4C3)c1 (configuration not stated) | i
CC12CCC(c3nnc(SCC(=O)Nc4cccc5ccccc45)nc31)C2(C)C (configuration not stated) | 1.3
COCCNC(=O)CC(NS(=O)(=O)c1ccc(NC(C)=O)cc1)C(C)C (configuration not stated) | 0.3
COc1cc(C(=O)N2CCN(c3ccc(C)cc3C)CC2)cc(OC)c1OC | i
CC(C)(C)N1CC(c2nc3ccccc3n2Cc2ccccc2)CC1=O (configuration not stated) | 0.2
Cc1ccc(C)c(C(=O)NCc2ccncc2)c1 | 0.9
C=CCn1c(=O)c2ccccc2n2c(SCC(N)=O)nnc12 | i
O=S(=O)(Nc1cc(Cl)ccc1N1CCCCC1)c1cccs1 | i
COc1ccc(C)cc1NC(=O)CSc1nnc(COc2ccc(Cl)cc2)n1Cc1ccco1 | 1.5
COC(=O)c1ccc(COC(=O)C23CC4CC(CC(O)(C4)C2)C3)o1 | 1.8
COc1ccc(C(=O)Cc2ccc(OC)c(OC)c2)c(OC)c1 | i
COc1ccc(C(=O)n2ccc(C)n2)cc1Br | i
CCOC(=O)CNC(=O)CNC(=O)Cn1ccc2ccccc2c1=O | 0.1
CCCCCCc1cc2cc(C(=O)NC)c(=N)oc2cc1O | 2.4
COc1ccc(-c2nc3cc(NC(=O)Cc4ccc(OC)c(OC)c4)ccc3o2)cc1 | 7.8
COc1ccc2c(c1)CCc1c(C(=O)Nc3cc(C)n(Cc4ccc(Cl)cc4)n3)noc1-2 | i

Part of the list above in order of molecular weight, rising.
SMILES | H5N1 CPE
COc1ccc(C(=O)n2ccc(C)n2)cc1Br | i
C=CCn1c(=O)c2ccccc2n2c(SCC(N)=O)nnc12 | i
COC(=O)c1ccc(COC(=O)C23CC4CC(CC(O)(C4)C2)C3)o1 | 1.8
COCCNC(=O)CC(NS(=O)(=O)c1ccc(NC(C)=O)cc1)C(C)C (configuration not stated) | 0.3
CC12CCC(c3nnc(SCC(=O)Nc4cccc5ccccc45)nc31)C2(C)C (configuration not stated) | 1.3
COc1ccc2c(c1)CCc1c(C(=O)Nc3cc(C)n(Cc4ccc(Cl)cc4)n3)noc1-2 | i
COc1ccc(C)cc1NC(=O)CSc1nnc(COc2ccc(Cl)cc2)n1Cc1ccco1 | 1.5

(listing goes on)
SMILES | H5N1 CPE
COc1ccc(-c2nnn(CC(=O)N(CC(=O)NC3CCCC3)Cc3cccs3)n2)cc1OC | i
CCCCNC(=O)C1CCN(C/C(C)=C/c2ccccc2)CC1 | i
Cc1cc(C)c(NC(=O)Cn2c(=O)n(Cc3ccco3)c(=O)c3ccccc32)c(C)c1 | i
COc1cc(C(=O)N2c3ccccc3CC2C)cc(OC)c1OC (configuration not stated) | 0.1
OC(Cn1c2ccccc2c2ccccc21)C[n+]1cccc2ccccc21 (configuration not stated) | i
Oc1[nH]c2ccccc2c1C1=NCCCC1 | 0.4
CCOc1ccc(CCNC(=O)c2ccc(N3CCCC3=O)cc2)cc1OCC | 0.5
Cn1ccnc1SCC(=O)NC12CC3CC(CC(C3)C1)C2 | 1.7
Cc1cc(=O)oc(C)c1C(=O)NCc1ccccn1 | i
Cc1cc(C)n(-c2ccc(C(=O)OCC(=O)Nc3ccc(S(=O)(=O)N4CCCCC4)cc3)cc2)n1 | i
Cc1nc(S(=O)(=O)NC2CCCCC2)c(C#N)c(C)c1Cl | 0.5
O=C(c1ccccc1)N1CCC(O)(c2cccnc2)CC1 | i
CN1CCc2[nH]c3ccc(C(=O)NN)cc3c2C1 | 0.8
N#Cc1nc(-c2ccco2)oc1NCc1cccnc1 | 6.0
CCn1c(=O)cc(SCC(=O)N2CCCCC2)c2ccccc21 | i
COc1ccccc1NS(=O)(=O)c1cc(C(=O)N2CC(C)CC(C)C2)ccc1C (configuration not stated) | 1.6
O=C(NCc1ccccc1)C(C(=O)c1ccc(F)cc1)n1ccccc1=O (configuration not stated) | i
COc1ccc(C(=O)Cc2cc(OC)c(OC)cc2[N+](=O)[O-])cc1 | i
COc1ccccc1NC(=O)C12CC3CC(C1)CC(c1ccc(C)cc1)(C3)C2 | i
CC12CCC(C(=O)NC(c3ccccc3)c3ccccc3)(OC1=O)C2(C)C (configuration not stated) | 0.6
CCOc1ccccc1CNc1nc2nc3c(c(=O)n2[nH]1)CCC3 | i
COc1ccc(C(=O)NCc2ccc(C)cc2)cc1S(=O)(=O)N1CCCc2ccccc21 | i
O=C(c1ccc(C(=O)N2CCOCC2)s1)N1CCOCC1 | i
O=C1CC(c2ccc(S(=O)(=O)NCCOc3ccccc3)cc2)CN1 (configuration not stated) | 1.6
Nc1c(NCc2ccccc2F)c(=O)[nH]c(=O)n1Cc1ccccc1 | i
CC(C)(C)c1[nH]nc2c1C(c1ccncc1)C(C#N)=C(N)O2 (configuration not stated) | i
Cn1c(SCC(=O)Nc2cccc3ccccc23)nc(O)cc1=O | i
Cc1nn(-c2ccccc2)c(Cl)c1C(=O)NCC(=O)O | i
CCOC(=O)Cn1c(=O)sc2ccccc21 | i
Cn1c(/N=C/c2c(O)ccc3ccccc23)nc2ccccc21 | i
CCN1C(=O)/C(=C/N(C)C)c2ccccc21 | i
CCOC(=O)C1CSC(CC(=O)Nc2ccc(Cl)c(Cl)c2)C(=O)N1 (configuration not stated) | i
CCN1C(=O)/C(=C/C=C2/SCCN2C)SC1=S | i
CCOc1ccc(NC(=O)CSc2nnc(Cc3cccn3C)n2-c2ccc(OC)cc2)cc1 | 1.4
O=C(NCc1cccnc1)C1c2ccccc2C(=O)N1C1CCCC1 (configuration not stated) | 0.5
CCOC(=O)C1=C(C)N=C2SCCC(=O)N2C1c1cccs1 (configuration not stated) | i
COc1ccc(OC)c(C(O)c2coc3ccc(O)c(CN(C)C)c23)c1 (configuration not stated) | i
Cc1ncsc1C(=O)NCc1ccc(N2CCCC2=O)cc1 | 0.1
COc1ccc(NC(C#N)c2ccc(OC)cc2)cc1 (configuration not stated) | i
Clc1ccccc1-c1nnc2sc(-c3cccs3)nn12 | 2.1
O=C1CCCc2c1[nH]c1ccccc21 | i
Cc1ccn2cc(CCNS(=O)(=O)c3ccc4c(c3)OCCO4)nc2c1 | 1.0
Cc1ccc(C(c2nnnn2C2CCCCC2)N2CCN3CCCC3C2)cc1 (configuration not stated) | i
Cc1ccsc1C=C1C(=O)c2ccccc2C1=O | i
COC(=O)c1[nH]c2ccccc2c1NC(=O)CN1CCN(Cc2ccc3c(c2)OCO3)CC1 | i

Reformatted: results already given
mol	H5N1 CPE
CCOC(=O)C1=C(C)N=C2SCCC(=O)N2C1c1cccs1 (configuration not stated)	i
Cc1ccn2cc(CCNS(=O)(=O)c3ccc4c(c3)OCCO4)nc2c1	1.0
Cc1ccsc1C=C1C(=O)c2ccccc2C1=O	i

More entries follow:
SMILES | H5N1 CPE
CCOc1ccc(C2C(C#N)=C(N)Oc3c2c(=O)oc2ccccc32)cc1 (configuration not stated) | 0.1
Cc1ccc(S(=O)(=O)N(C)Cc2ccc(-c3nnc4n3CCC4)cc2)cc1 | 3.7
Cc1nc2scc(-c3ccccc3)c2c(=O)n1/N=C/c1ccco1 | i
Cc1ccccc1NC(=O)OCc1cn(-c2ccc(Cl)cc2)nn1 | i
COc1ccc(NC(=O)c2ccc(-n3cccn3)nc2)c(OC)c1 | i
Cc1ccc(-c2nc3ccccc3c(=O)n2CCCn2ccnc2)cc1 | 1.5
CC(C)N1CC(C(=O)Nc2nc3ccccc3s2)CC1=O (configuration not stated) | i
CCOC(=O)c1c(C)n(CCOC)c2ccc(O)cc12 | 0.1
Cc1ccc(NC(=O)CS(=O)CC(=O)NCC2CCCO2)cc1 (configuration not stated) | i
Cn1ncc(N=Cc2ccccc2)c1C(N)=O | 1.0
O=C(CCc1ccc(S(=O)(=O)N2CCOCC2)cc1)Nc1nccs1 | 0.3
C=CCN(Cc1cccc(OC)c1OC)S(=O)(=O)N(C)C | 0.1
Cc1cccc(OCc2nnc3n2CCCCC3)c1 | i
O=C(Nc1c(F)cc(F)cc1Br)c1cc(-c2ccco2)on1 | i
COc1ccc(S(=O)(=O)N2Cc3ccccc3CC2C(=O)N2CCOCC2)cc1OC (configuration not stated) | i

Not a retest: an excerpt of the list.
SMILES | H5N1 CPE
Cc1ccc(S(=O)(=O)N(C)Cc2ccc(-c3nnc4n3CCC4)cc2)cc1 | 3.7
Cc1nc2scc(-c3ccccc3)c2c(=O)n1/N=C/c1ccco1 | i
Cc1ccccc1NC(=O)OCc1cn(-c2ccc(Cl)cc2)nn1 | i
COc1ccc(NC(=O)c2ccc(-n3cccn3)nc2)c(OC)c1 | i
Cc1ccc(-c2nc3ccccc3c(=O)n2CCCn2ccnc2)cc1 | 1.5

Further records:
SMILES | H5N1 CPE
CC(=O)N1C(=O)N(C(C)=O)C2C1N(C(C)=O)C(=O)N2C(C)=O (configuration not stated) | i
C=CCNS(=O)(=O)c1ccc(OCC(=O)OC)cc1 | 0.4
COc1ccc(N2CCN(C(=O)CCCn3c(=O)[nH]c4ccsc4c3=O)CC2)cc1 | 1.0
Cc1ccc(S(=O)(=O)Nc2c3ccccc3nc(=O)n2-c2ccccc2)cc1 | 0.3
COc1ccc(C(F)(F)F)cc1N/C=C\c1nnnn1-c1ccc(C)cc1 | i
CCn1c(-c2ccc3ncccc3c2)n[nH]c1=S | 0.0
O=C(c1noc2c1CCc1ccccc1-2)N1CCOCC1 | i
CN(C)S(=O)(=O)N1CCN(c2ccccc2Cl)CC1 | 1.6
CCOC(=O)C1CCN(C(=O)c2cccnc2Cl)CC1 | i
Cc1cc(O)c(/C=N/Nc2cccc(Cl)c2)c(=O)o1 | i
CC(=O)N(Cc1cccnc1)Cc1cc2ccccc2[nH]c1=O | 0.8
O=C(NCCNC1CCN(Cc2ccccc2)CC1)c1cccs1 | i
COC(=O)c1sccc1NC(=O)c1cccc(OC)c1 | i
Cc1ccc(-c2nnc(-c3ccccc3S(=O)(=O)Cc3ccc(Cl)cc3)o2)cc1 | 0.1
O=C(CSc1nnc(-c2ccc(Br)cc2)o1)Nc1cccc2ccccc12 | i
COc1cccc(/C=N/NC(=O)c2cc(C34CC5CC(CC(C5)C3)C4)[nH]n2)c1 | i
Cc1ccc(CS(=O)(=O)CCC(=O)N2CCC3(CC2)OCCO3)cc1 | i
O=C1C2CCCN2C(c2ccc(Cl)c(Cl)c2)N1c1ccccn1 (configuration not stated) | i
Cc1c(O)ccc(C(=O)CN2C(=O)c3ccccc3C2=O)c1O | i
CCCC(=O)Nc1nc2ccc(S(N)(=O)=O)cc2s1 | 0.4
CCOC(=O)CSc1nnc(NCC(=O)OC)c(=O)[nH]1 | i
COc1ccccc1CNC(=O)COC(=O)c1cc(-c2ccco2)nc2ccccc12 | i
CC1=C(C(=O)Nc2ccccc2)C(c2ccc(C)o2)n2c(s/c(=C/c3ccccc3)c2=O)=N1 (configuration not stated) | 0.1
COCc1nnc(NC(=O)CCN2C(=O)c3ccccc3C2=O)s1 | i
Cc1noc(C)c1S(=O)(=O)N1CCC(C(=O)Nc2ccccn2)CC1 | i
CCCCCCC1CCC(C(=O)NC(CCSC)C(=O)NC(C(=O)OC)C(C)C)CC1 (configuration not stated) | i

Two entries drawn at random from those above:
SMILES | H5N1 CPE
COCc1nnc(NC(=O)CCN2C(=O)c3ccccc3C2=O)s1 | i
O=C1C2CCCN2C(c2ccc(Cl)c(Cl)c2)N1c1ccccn1 (configuration not stated) | i
